Screens as filed in PubChem BioAssay.
CBX7 AlphaScr – inhibitors of human CBX7 binding to H3K27me3 peptide. O95931. 66,000 compounds, 1.1% hits. normalised signal (fraction of DMSO) (test concentration not listed). AlphaScreen His6-CBX7 / biotin-H3K27me3 peptide binding; stronger effect = lower value; in the data active means normalised signal below about 0.5;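 further: 100 nL library stock added to about 20 µL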
Target sequence (O95931 whole entry, looked up): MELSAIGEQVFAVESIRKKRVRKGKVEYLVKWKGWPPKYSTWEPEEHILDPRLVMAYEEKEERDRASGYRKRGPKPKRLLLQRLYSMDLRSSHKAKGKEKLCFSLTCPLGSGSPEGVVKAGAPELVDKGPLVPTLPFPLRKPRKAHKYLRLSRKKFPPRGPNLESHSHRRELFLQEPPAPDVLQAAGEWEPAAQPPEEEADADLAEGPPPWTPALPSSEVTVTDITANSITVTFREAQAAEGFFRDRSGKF
CBX7 AlphaScr z-score – recorded beside CBX7 AlphaScr, whose call it bears; z-score; measured here: z-score of CBX7 signal; some inactives read as strong as hits; reference of the scale not given here;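 same signal on another scale; lower means less binding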
Starred values were filed as active, the others as inactive.

SMILES | CBX7 AlphaScr | CBX7 AlphaScr z-score
CCN(CCCNC(=O)c1ccc2c(c1)NC(=O)C1CCCN21)Cc1ccccc1 (configuration not stated) | 1.1 | 0.36
CCOC(=O)c1ccc(NC(=O)CC2C(=O)N(c3ccccc3)C(=O)N2Cc2ccc(C)cc2)cc1 (configuration not stated) | 1 | -0.13
COC(=O)Cn1nc(-c2ccccc2)c2ccccc21 | 0.99 | -0.18
CCOC(=O)c1sc(NC(=O)c2cc3ccccc3o2)nc1C | 1.1 | 1.4
CCn1c(C(=O)N2CCCC(C(=O)N3CCN(c4cccc(C)c4C)CC3)C2)cc2sccc21 (configuration not stated) | 0.56 | -1.9
Cc1ccc(CNC(=O)C2=CCN(S(=O)(=O)c3ccc(C)cc3)CC2)cc1 | 1.1 | 1.1
O=C(Cc1ccc(F)cc1)Nc1c2c(nn1-c1ccc(Cl)cc1)CSC2 | 0.98 | -1.1
c1ccc(CCc2nc(-c3cccnc3)no2)cc1 | 1.1 | 2
CN(CC(=O)Nc1ccc(Cl)cc1)S(=O)(=O)c1ccc2c(c1)n(C)c(=O)c(=O)n2C | 1 | 0.0096
CC(C)c1ccc(NC(=O)C(c2ccccc2)N2CCc3ccccc32)cc1 (configuration not stated) | 0.49* | -3.2*
c1ccc(OCCCn2c(COc3ccccc3)nc3ccccc32)cc1 | 0.96 | -1.3
COc1ccc(N2CCN(C(=O)c3cc4c(s3)-c3c(C)cccc3OC4)CC2)cc1 | 1 | 0.77
CCN(CC)S(=O)(=O)c1ccc2c(c1)N(CC(=O)Nc1ccc(C)c(Cl)c1)C(=O)CS2 | 0.95 | -1.8
Brc1cnc(OCc2ccccc2)nc1OCc1ccccc1 | 1.1 | 2.1
COc1cc2c(cc1OC)C(C(=O)Nc1ccc(C(C)C)cc1)C(c1ccccc1F)N(C)C2=O (configuration not stated) | 0.97 | -0.6
c1cncc(-c2nc(N3CCCCC3)c3ccccc3n2)c1 | 0.99 | -0.43
CCOC(=O)c1c(NC(=O)c2cc(C)no2)sc(C)c1C | 0.86 | -2
CCn1cc(C(=O)Nc2ccc(C)c(F)c2)c2cc(OC)c(OC)cc2c1=O | 1.1 | 1.9
O=C(CS(=O)(=O)c1nc(-c2ccc3c(c2)OCO3)cn1-c1ccccc1)Nc1ccc(F)cc1 | 0.9 | -4
CCOc1ccc(NC(=O)c2cnc(Nc3ccc(C)c(Cl)c3)c3ccccc23)cc1 | 1 | 0.65
Cc1ccc(-c2noc(CN3CCN(Cc4ccccc4)CC3)n2)cc1 | 1 | 0.028
Clc1ccc2nc(-c3ccsc3)c(NC(c3ccccc3)c3ccccc3)n2c1 | 1 | 1.6
CCc1ccccc1NC(=O)CN(C)S(=O)(=O)c1cnc[nH]1 | 0.85 | -2.1
O=C(COc1cccc(Cl)c1)Nc1nc(-c2ccccc2)cs1 | 1.4 | 0.69
Cc1ccc(NC(=O)CSc2ccc3nnc(-c4ccccc4)n3n2)cc1Cl | 1 | 0.08
O=C(CN1C(=O)CSc2ncccc21)NCCc1ccc(Cl)cc1 | 1.1 | 2.8
COc1cccc(NC(=O)c2cnn(-c3ccc(C)cc3)c2C2CCNCC2)c1 | 1.1 | 1.9
O=C(CN1C(=O)COc2ccc(S(=O)(=O)N3CCOCC3)cc21)NCc1ccccn1 | 1 | 1.4
COc1ccc(-c2ccc(=O)n(CC(=O)Nc3ccc(C(C)C)cc3)n2)cc1 | 0.93 | -2
O=C(NC1CCCCCC1)c1ccc2c(c1)ncn2-c1ccc(F)cc1F | 0.97 | -0.38
COc1ccc(Cl)cc1Nc1nc(-c2ccc(C)cc2)nc2ccccc12 | 1.1 | 2.2
COc1ccc(OC)c(C2=NOC(C(=O)Nc3cccnc3)C2)c1 (configuration not stated) | 0.93 | -1.3
COc1nccnc1NS(=O)(=O)c1ccc(NC(=O)c2ccccc2)cc1 | 0.99 | -0.3
COc1cccc(NC(=O)c2cn(-c3ccc(F)cc3F)c(=O)c3ccccc23)c1 | 0.94 | -1.8
CN1CCN(CCCNC(=O)c2ccc3c(=O)n(CCc4ccccc4)c(=O)[nH]c3c2)CC1 | 1.1 | 1.7
CCc1ccc(OCCCC(=O)Nc2nc3ccc(S(C)(=O)=O)cc3s2)cc1 | 0.97 | -0.35
COc1ccccc1CC(=O)Nc1ccc(-c2noc(-c3ccccc3C)n2)cc1 | 0.94 | -0.58
COc1cc(OC)c(N(C)C(=O)c2cc3c(s2)-c2ccccc2OC3)cc1Cl | 0.87 | -6.2
Cc1cccc(NC(=O)C2CCN(S(=O)(=O)c3c(C)noc3/C=C/c3cccs3)CC2)c1C | 0.93 | -0.15
c1cc2c(cc1CNc1ccc3nncn3n1)OCO2 | 0.98 | -0.53
CCCCN(CC#CC(O)(c1ccccc1)c1ccccc1)CCO | 1.2 | 1.8
O=C1CCc2cc(S(=O)(=O)NC(Cc3ccccc3)C(=O)NCc3ccc4c(c3)OCO4)ccc2N1 (configuration not stated) | 0.99 | -0.085
Cc1cc(N2CCOCC2)nc2ccc(NC(=O)C3CCC(C(C)(C)C)CC3)cc12 (configuration not stated) | 1.1 | 1.5
Cc1nc2cc(-c3ccc(Cl)cc3)nn2c(C)c1CCC(=O)NCc1ccc(F)cc1 | 1.1 | 2.8
COc1ccccc1CNC(=O)CN1CCN(Cc2ccc(C)cc2)C1=O | 1 | 0.15
O=C1Nc2ccccc2OC1CC(=O)N1CCN(c2ncccn2)CC1 (configuration not stated) | 0.95 | -0.28
CCN(CC)c1ccc(NC(=O)c2c(-c3ccccc3Cl)noc2C)cc1 | 0.75 | -5.8
COc1ccc2c(c1C)CCC(C1(O)C(=O)Nc3ccccc31)C2=O (configuration not stated) | 1 | 0.35
COc1cc(NS(=O)(=O)c2ccc3c(c2)CCN3C(=O)C2CC2)cc(OC)c1 | 1 | 0.58
CCc1ccc(-c2csc(Nc3ccc(S(=O)(=O)Nc4cc(C)on4)cc3)n2)cc1 | 0.92 | -1.7

Four of the entries above in order of their number in CBX7 AlphaScr z-score, low to high:
SMILES | CBX7 AlphaScr z-score
CCN(CC)c1ccc(NC(=O)c2c(-c3ccccc3Cl)noc2C)cc1 | -5.8
O=C1CCc2cc(S(=O)(=O)NC(Cc3ccccc3)C(=O)NCc3ccc4c(c3)OCO4)ccc2N1 (configuration not stated) | -0.085
COc1cc(NS(=O)(=O)c2ccc3c(c2)CCN3C(=O)C2CC2)cc(OC)c1 | 0.58
CCCCN(CC#CC(O)(c1ccccc1)c1ccccc1)CCO | 1.8

The results go on:
SMILES | CBX7 AlphaScr | CBX7 AlphaScr z-score
Cc1ccc(Nc2c(-c3ccc(C)cc3)nc3ncccn23)cc1 | 1.1 | 2.9
O=C1CN(S(=O)(=O)c2ccc(Cl)cc2)CC(=O)N1CCc1ccccc1 | 1.1 | 1.6
COc1ccc(NC(=O)C2CCCN(S(=O)(=O)c3cccc4cccnc34)C2)cc1OC (configuration not stated) | 1.1 | 0.8
COc1ccc(-c2cc(-c3ccc(Cl)cc3)n[nH]2)c(O)c1 | 0.91 | -3.7
COc1ccc(-c2cc(C(=O)Nc3ccc(Br)cc3)no2)cc1 | 1.1 | 0.32
CC(C)CSc1oc(-c2cccs2)nc1S(=O)(=O)c1ccc(F)cc1 | 0.89 | -0.19
CCOC(=O)C1CCCN(c2c(N3CCN(c4cccc(C)c4)C(C)C3)c(=O)c2=O)C1 (configuration not stated) | 0.94 | -1.3
COc1ccc(Cn2c(CCC(=O)Nc3ccc(OC)c(OC)c3)nc3cccnc32)cc1 | 1 | 0.082
O=C(CC1Oc2ccccc2NC1=O)Nc1ccccc1Cl (configuration not stated) | 1 | 0.086
CCOC(=O)c1cnc2c(C)cccc2c1NCCc1ccccc1 | 1.5 | 18
CC(C)CCNC(=O)c1ccc2c(c1)N(Cc1c(F)cccc1Cl)C(=O)CS2 | 1.1 | 0.13
Cc1cc(C(=O)Nc2c(C)nn(Cc3ccccc3Cl)c2C)on1 | 1.2 | 3
COc1cccc(C(O)c2cnc(C(C)C)n2C)c1 (configuration not stated) | 0.98 | -0.73
CCCNC(=O)c1ccc(-c2nn(C)c(=O)c3ccccc23)cc1 | 1 | -0.0028
CC1CCN(c2nc3ccc(C(=O)NCc4ccc5c(c4)OCO5)cc3s2)CC1 | 0.92 | -1.7
CCCCOc1nnc(-c2ccc(OCC)cc2)c2ccccc12 | 0.99 | -0.23
O=c1[nH]c2ccc(S(=O)(=O)Nc3ccc(Br)cc3F)cc2[nH]c1=O | 0.99 | -0.33
CCN(c1ccccc1)c1nc2nonc2nc1NCCO | 1 | 0.81
CCOC(=O)CCCCC(=O)c1[nH]c(=O)[nH]c1CSc1nnc2c(n1)[nH]c1ccccc12 | 0.42* | -0.58*
Cc1ccc(-c2nc(CS(=O)(=O)CC(=O)N3CCN(c4ccccc4)CC3)c(C)o2)cc1 | 0.66 | -0.7

A few values from above.
CC(C)CCNC(=O)c1ccc2c(c1)N(Cc1c(F)cccc1Cl)C(=O)CS2 – CBX7 AlphaScr: 1.1
COc1cccc(C(O)c2cnc(C(C)C)n2C)c1 (configuration not stated) – CBX7 AlphaScr: 0.98

Further structures follow.
SMILES | CBX7 AlphaScr | CBX7 AlphaScr z-score
CC(=O)N1CCCc2cc(S(=O)(=O)N3CCN(c4cc(Cl)ccc4C)CC3)ccc21 | 0.9 | -1.8
O=C(Nc1c(-c2cccs2)nc2ccccn12)c1ccc2c(c1)OCO2 | 0.95 | -1.6
CCCN1Cc2cccc(C(=O)Nc3ccc(C)cc3C)c2C1=O | 0.99 | -0.13
CCOc1ccccc1NC(=O)c1cn(-c2ccc(C)c(C)c2)c(=O)c2ccccc12 | 1 | 0.11
Cc1nc2c(C(=O)NC3CCCC3)cnn2c(C)c1Cc1ccc(F)cc1 | 1.2 | 1.4
O=C(NCc1cccnc1)c1cc(-c2ccco2)on1 | 1 | -0.067
COc1cc2c(cc1OC)C(C(=O)NCCCN1CCN(C)CC1)C1c3ccccc3CCN1C2=O (configuration not stated) | 1 | 1.3
Cc1cccc(C)c1OCC(=O)Nc1c(C(=O)c2ccccc2)oc2ccccc12 | 1.1 | 0.24
COC(=O)CSc1nnnn1-c1ccc(C(N)=O)cc1 | 1.1 | 1.5
Cc1ccccc1C(=O)Nc1nnc(C2CCCCC2)s1 | 0.98 | -0.66

Part of the list above in order of formula weight, descending.
SMILES | CBX7 AlphaScr | CBX7 AlphaScr z-score
COc1cc2c(cc1OC)C(C(=O)NCCCN1CCN(C)CC1)C1c3ccccc3CCN1C2=O (configuration not stated) | 1 | 1.3
CC(=O)N1CCCc2cc(S(=O)(=O)N3CCN(c4cc(Cl)ccc4C)CC3)ccc21 | 0.9 | -1.8
CCOc1ccccc1NC(=O)c1cn(-c2ccc(C)c(C)c2)c(=O)c2ccccc12 | 1 | 0.11
Cc1nc2c(C(=O)NC3CCCC3)cnn2c(C)c1Cc1ccc(F)cc1 | 1.2 | 1.4
O=C(Nc1c(-c2cccs2)nc2ccccn12)c1ccc2c(c1)OCO2 | 0.95 | -1.6
CCCN1Cc2cccc(C(=O)Nc3ccc(C)cc3C)c2C1=O | 0.99 | -0.13
Cc1ccccc1C(=O)Nc1nnc(C2CCCCC2)s1 | 0.98 | -0.66

Two compounds picked at random from those above, as already listed:
SMILES | CBX7 AlphaScr | CBX7 AlphaScr z-score
CCOc1ccccc1NC(=O)c1cn(-c2ccc(C)c(C)c2)c(=O)c2ccccc12 | 1 | 0.11
O=C(NCc1cccnc1)c1cc(-c2ccco2)on1 | 1 | -0.067

Additional records:
SMILES | CBX7 AlphaScr | CBX7 AlphaScr z-score
COCCNC(=O)c1nn(-c2cccc(OC)c2)c(=O)c2ccccc12 | 1 | 0.24
Cc1ccc(C)c2[nH]c(=O)c(CCNC(=O)c3ccc4c(c3)OCO4)cc12 | 1 | 0.76
CC1CC(C)CN(CCCNC(=O)C2CCN(c3nnc(-n4cccc4)s3)CC2)C1 (configuration not stated) | 1.7 | 7.5
Cc1cccc(Cc2c(C)nc3nc(SCC(=O)Nc4ccc(C)c(C)c4)nn3c2C)c1 | 1.2 | 1.8
CCOC(=O)c1ccc(NC(=O)C2CC(=O)N(c3ccc(F)cc3)C2)cc1 (configuration not stated) | 0.99 | -0.38
Cc1nc2cc(-c3ccccc3)nn2c(C)c1CCC(=O)Nc1ccccc1F | 1 | 0.67
Fc1ccc(Nc2c(-c3ccccn3)nc3ccc(Br)cn23)cc1 | 0.95 | -0.43
COc1ccc(C2NCCc3c2[nH]c2ccccc32)cc1OC (configuration not stated) | 1.1 | 1.3
Cc1ccc(-n2c(C)c(C(=O)c3ccccc3)c3cc(O)ccc32)cc1C | 0.94 | -1.9
Cc1ccc(O)c(C(CC(=O)NCC2(c3ccccc3)CCCC2)c2ccccc2)c1 (configuration not stated) | 0.93 | -0.73
O=C(NCc1ccccc1Cl)c1cc(=O)nc2sc(-c3ccccc3)nn12 | 0.83 | -1.9
COc1cccc(NC(=O)N2CCC(N(C)CCC(C)C)CC2)c1 | 1.1 | 1.7
CCC(C(=O)NCc1ccc(Cl)cc1)n1ncc2ccccc21 (configuration not stated) | 0.94 | -1.4
O=C(Nc1nc(-c2cc3ccccc3o2)cs1)c1cc2ccccc2oc1=O | 0.8 | -2.1
Cc1cccc(OCc2nc(-c3ccc(NC(=O)c4cccnc4)cc3)no2)c1C | 1 | 0.27
CCOC(=O)c1c(NC(=O)Cc2ccccc2)sc(C(=O)N2CCCCC2)c1C | 0.86 | -2.2
O=C(NCc1cccnc1)C1c2ccccc2C(=O)N1CCc1ccc(Cl)cc1 (configuration not stated) | 1 | -0.076
O=C(NCC1CCCO1)C1c2ccccc2C(=O)N1Cc1ccccc1 (configuration not stated) | 1 | 0.057
CC1CCCN(S(=O)(=O)c2ccc3[nH]c(=O)cc(C(=O)NC(C)c4ccccc4)c3c2)C1 (configuration not stated) | 1.1 | 2.6
COc1ccccc1-c1nnc(NC(=O)c2ccc(S(=O)(=O)N3CC(C)OC(C)C3)cc2)o1 (configuration not stated) | 0.68 | -7.3
COCC(=O)NC(C)c1nc2ccccc2n1Cc1cc(C)ccc1C (configuration not stated) | 0.98 | -0.65
O=C1CC(c2nc3ccccc3n2Cc2ccccc2Cl)CN1c1ccccc1F (configuration not stated) | 0.81 | -1.3

A portion of the library; rates above refer to the full screens.
